UCH37 inh: inhibitors of human deubiquitinating enzyme UCH37; 330,000 compounds, 0.33% hits; inhibition, % (no concentration beside the values); purified proteasome/UCH37, Ub-AMC cleavage fluorescence; Q9Y5K5;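 active = mean of two replicates above 20%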;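 also: 0% = compound-free wells with enzyme and 100% = wells lacking proteasome; stock transfer was 100 nL into about 20 µL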
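Schedule: 30 min plus 25 min, room temperature / Material: human UCH37 within purified proteasomes / Technique: AMC fluorescence intensity at 355/460 nm / Buffer or medium: pH 7.4 Tris-HCl (50 mM) with ovalbumin, ATP-MgCl2, DTT / Controls: wells without proteasome as full block, compound-free enzyme plus substrate as uninhibited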
ALR H2O2 inh: human ALR oxidase inhibition via reduced H2O2 | P55789 | purified ALR, DTT oxidation, H2O2 HRP-luminol luminescence | inhibition, % (concentration not given with the values) | 290,000 compounds, 3.8% hits | AID 485317;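 active = mean and each replicate at 75% or more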;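 also: stock transfer was 7.5 nL into about 7.5 µL; 0% = neutral wells and 100% = wells with inactivated enzyme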
Beta2AR agonist: agonists of human beta-2 adrenergic receptor inducing internalization. Am2.2-beta2AR cells, FAP receptor internalization, flow cytometry; reference of the scale not given here. response, % (test concentration not listed). 340,000 compounds, 0.43% hits;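 active = response above a set limit, near 3 SD of response in nonfluorescent compounds, cut at about 42% in these data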;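 also: stock transfer was 100 nL into about 11 µL; a reference agonist was the positive control; negative values mostly stem from fluorescent compounds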
Target sequence (P07550 whole entry, looked up): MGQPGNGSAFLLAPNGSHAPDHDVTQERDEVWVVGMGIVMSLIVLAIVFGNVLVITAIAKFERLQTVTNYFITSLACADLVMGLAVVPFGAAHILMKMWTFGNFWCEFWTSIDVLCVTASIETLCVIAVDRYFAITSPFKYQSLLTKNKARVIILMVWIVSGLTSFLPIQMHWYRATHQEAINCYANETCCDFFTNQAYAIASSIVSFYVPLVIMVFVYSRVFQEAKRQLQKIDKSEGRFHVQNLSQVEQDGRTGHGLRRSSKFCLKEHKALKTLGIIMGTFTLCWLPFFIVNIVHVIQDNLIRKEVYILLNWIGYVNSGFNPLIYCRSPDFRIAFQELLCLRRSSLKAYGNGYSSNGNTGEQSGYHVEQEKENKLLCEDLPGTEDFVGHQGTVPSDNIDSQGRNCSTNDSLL
LANA-H2A inh: blocks KSHV LANA binding to histone H2A/H2B; 320,000 compounds, 0.6% hits; cell-free LANA-H2A/H2B peptide, fluorescence polarization; AID 2629; inhibition, % (test concentration not listed); in the data active = inhibition mostly above about 10%, no sharp cut-off; inactive = mostly below about 6.7%;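 also: stock transfer was 7.5 nL into about 10 µL; 0% = median of vehicle wells and 100% = median of positive control wells; one replicate is shown; the record names a cut of 25% in any replicate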
HNF4A DNA FP: change in binding of human HNF4 alpha to DNA; activity change, % at 10 µM; P41235; HNF4a-FITC DNA binding, fluorescence polarization, 1 h; 360,000 compounds, 0.3% hits; in the data active = activity change above about 30%, passing the limit was not always enough;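 also: controls were the assay level and a saturating level of protein; the project sought stronger binding though the title names inhibitors; some compounds called inactive have numbers as strong as hits; positive values seem to mean higher polarization but the record does not say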
Target sequence (P41235 whole entry, looked up): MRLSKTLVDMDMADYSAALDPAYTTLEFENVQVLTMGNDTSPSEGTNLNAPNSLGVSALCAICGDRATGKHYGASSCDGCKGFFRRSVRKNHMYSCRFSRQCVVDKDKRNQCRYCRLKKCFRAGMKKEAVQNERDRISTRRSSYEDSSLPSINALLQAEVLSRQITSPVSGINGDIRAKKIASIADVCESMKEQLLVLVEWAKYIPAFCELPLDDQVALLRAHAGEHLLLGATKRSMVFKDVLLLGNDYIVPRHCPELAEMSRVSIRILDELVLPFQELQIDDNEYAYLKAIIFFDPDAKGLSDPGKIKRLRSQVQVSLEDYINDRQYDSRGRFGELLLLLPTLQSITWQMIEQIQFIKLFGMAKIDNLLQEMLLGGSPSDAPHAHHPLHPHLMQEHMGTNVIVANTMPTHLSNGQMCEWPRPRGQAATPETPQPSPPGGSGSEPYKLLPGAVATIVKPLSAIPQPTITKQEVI
Ecoli growth: inhibitors of Escherichia coli growth. OD600, 23 h; hits give low values. OD600 absorbance (no concentration beside the values). 330,000 compounds, 0.21% hits. AID 1053175;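 active = OD600 absorbance below the run mean of sample wells minus 3.6 SD, in any replicate, cut at about 0.56 in these data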;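 also: stock transfer was 300 nL into about 60 µL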
FGF22 binding: shifts melting point of recombinant human FGF22. Q9HCT0. calls only at 9.99 µM. recombinant FGF22 thermal shift, SYPRO orange fluorescence; percent of sucrose octasulfate shift, DMSO zero. 340,000 compounds, 1.5% hits;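 active = melting point raised past a set limit in the mean and every replicate; three in four hits are not shown here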
Target sequence (Q9HCT0 whole entry, looked up): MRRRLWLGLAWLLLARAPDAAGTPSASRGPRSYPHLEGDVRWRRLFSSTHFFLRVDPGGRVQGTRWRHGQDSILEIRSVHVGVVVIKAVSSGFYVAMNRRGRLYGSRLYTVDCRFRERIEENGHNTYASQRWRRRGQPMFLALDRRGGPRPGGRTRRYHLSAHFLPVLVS
Numbers without * were called inactive; i = inactive; . = not tested or not shown.

Order of values: UCH37 inh, ALR H2O2 inh, Beta2AR agonist, LANA-H2A inh, HNF4A DNA FP, Ecoli growth, FGF22 binding
CCOC(=O)Cc1csc(NC(=O)CCN2C(=O)c3ccccc3C2=O)n1
  -0.7, -7, 9, -1.3, 1.1, 0.69, .
CCCCCCSc1cc(-c2nc3cnccn3c2NCCCC)ccc1OC
  ., 8, -28, -1.7, 11, ., .
COC(=O)CN1C(=O)Nc2ccc(Br)cc2C1c1ccccc1 (centres undefined)
  0.7, -16, -5, -10, -0.3, 0.7, .
CCCCc1ccc(NC(=O)Nc2cc(C)nn2C)cc1
  2.4, 0, -1, 1.5, -1.0, 0.64, .
O=C1c2ccccc2NC(c2ccc(Cl)cc2Cl)N1Cc1ccccc1 (centres undefined)
  -47, -4, 5, -4.0, -0.1, 0.8, .
COc1ccc(-c2cc(=O)oc3cc(OCC(=O)Nc4ccc(CCO)cc4)ccc23)cc1
  -5.7, -5, 3, 3.6, -2.4, 0.68, i
CC(=O)CSc1nnc(CN2C(=O)CSc3ccc(C(F)(F)F)cc32)n1C
  0.9, 13, -6, -0.2, 0.0, 0.64, i
Cc1ccc(S(=O)(=O)Cn2nnnc2C(c2ccccn2)N2CCN(c3ccccc3)CC2)cc1 (centres undefined)
  0.4, -17, -5, 1.9, 1.5, 0.72, .
Cc1nc(N2CCOCC2)nc(N2CCCC2)c1[N+](=O)[O-]
  3.4, 2, -4, 6.0, 2.7, 0.68, .
Cc1ccccc1NC(=O)N1CCC(NC(=O)C2CCCCC2)CC1
  3.6, 6, -8, -3.6, 3.8, 0.68, i

Entries of single compounds, quoted from the list:
CCCCc1ccc(NC(=O)Nc2cc(C)nn2C)cc1 is listed as UCH37 inh = 2.4; ALR H2O2 inh = 0; Beta2AR agonist = -1; LANA-H2A inh = 1.5; HNF4A DNA FP = -1.0; Ecoli growth = 0.64; FGF22 binding = .
CC(=O)CSc1nnc(CN2C(=O)CSc3ccc(C(F)(F)F)cc32)n1C is listed as UCH37 inh = 0.9; ALR H2O2 inh = 13; Beta2AR agonist = -6; LANA-H2A inh = -0.2; HNF4A DNA FP = 0.0; Ecoli growth = 0.64; FGF22 binding = i

A second format for some results above.
SMILES | UCH37 inh | ALR H2O2 inh | Beta2AR agonist | LANA-H2A inh | HNF4A DNA FP | Ecoli growth | FGF22 binding
Cc1ccc(S(=O)(=O)Cn2nnnc2C(c2ccccn2)N2CCN(c3ccccc3)CC2)cc1 (centres undefined) | 0.4 | -17 | -5 | 1.9 | 1.5 | 0.72 | .
Cc1ccccc1NC(=O)N1CCC(NC(=O)C2CCCCC2)CC1 | 3.6 | 6 | -8 | -3.6 | 3.8 | 0.68 | i

(continued)
Order of values: UCH37 inh, ALR H2O2 inh, Beta2AR agonist, LANA-H2A inh, HNF4A DNA FP, Ecoli growth, FGF22 binding
Cc1ccc(-c2nn3c(-c4ccco4)nnc3c3ccccc23)cc1S(=O)(=O)NCC1CCCO1 (centres undefined)
  -45, 5, 5, -3.2, -0.1, 0.72, .
CCN(CC)S(=O)(=O)c1ccc(N/N=C/c2cc(OC)c(OC)cc2OC)nc1
  ., -6, -1, -2.3, 0.8, ., .
CCOC(=O)c1c(NC(=O)CN2CCN(C(=O)C3CCCO3)CC2)sc(C)c1C (centres undefined)
  1.5, -2, -4, 3.8, -3.6, 0.71, i
Cc1nc2c(C(=O)NCc3ccco3)cnn2c(C)c1Cc1ccc(F)cc1Cl
  -55, -2, 18, -3.2, -3.7, 0.68, .
CCc1noc(C)c1C(=O)OCC(=O)c1ccc(NC(C)=O)cc1F
  3.3, -4, 10, 2.1, 2.6, 0.67, i
C[C@H](NC(=O)c1[nH]cnc1C(=O)Nc1ccccc1)C(=O)OC(C)(C)C
  1.9, -5, -5, -3.9, 1.4, ., i
O=C(CCNC(=O)N1CC(=O)Nc2ccccc21)Nc1ccc(Br)cc1F
  4.5, 0, -8, -5.1, 0.9, 0.66, i
Cc1cc2nc(SCCOC(=O)Nc3ccc(Cl)cc3)nc(C)c2cc1C
  -1.8, -17, 14, -0.9, 0.3, 0.72, .
NC(=O)c1sc2nc3c(c(-c4cccnc4)c2c1N)CCC3
  3.3, -8, -6, -1.9, -0.8, 0.7, .
Cc1cc(C)c(S(=O)(=O)c2ccccc2Cl)c(=O)[nH]1
  -0.5, 2, -1, 1.9, 2.3, 0.62, i

5 entries already listed, sorted by their value in Ecoli growth, descending:
molecule	Ecoli growth
CCOC(=O)c1c(NC(=O)CN2CCN(C(=O)C3CCCO3)CC2)sc(C)c1C (centres undefined)	0.71
NC(=O)c1sc2nc3c(c(-c4cccnc4)c2c1N)CCC3	0.7
CCc1noc(C)c1C(=O)OCC(=O)c1ccc(NC(C)=O)cc1F	0.67
O=C(CCNC(=O)N1CC(=O)Nc2ccccc21)Nc1ccc(Br)cc1F	0.66
Cc1cc(C)c(S(=O)(=O)c2ccccc2Cl)c(=O)[nH]1	0.62

Other records follow.
Order of values: UCH37 inh, ALR H2O2 inh, Beta2AR agonist, LANA-H2A inh, HNF4A DNA FP, Ecoli growth, FGF22 binding
CCOc1ccc(C(=O)NCC(=O)NC(C)c2ccc(-n3ccnc3)cc2)cc1OCC (centres undefined)
  1.0, -3, -1, 5.5, 0.0, 0.68, i
C=CCn1c(C)cc(C(=O)CN2C(=O)NC3(CCCc4ccccc43)C2=O)c1C (centres undefined)
  -1.0, -2, 9, -3.9, 1.7, 0.66, .
COc1ccc(CCNC(=O)c2cnc(Cl)c(Cl)c2)cc1
  4.0, -3, 1, -1.9, 0.1, 0.64, i
COc1nc(OC)nc(N(C)CCO)n1
  1.2, -4, 3, -0.8, 2.5, 0.75, .
Cc1nc2ccc(NC(=O)C3CCN(S(=O)(=O)c4cccs4)CC3)cc2s1
  2.0, -2, -2, 2.0, -10, 0.61, .
CCOc1ccc2c(c1)C(N(CCN1CCOCC1)C(=O)Nc1ccccc1)CC(C)(C)O2 (centres undefined)
  2.9, ., -3, ., -6.9, 0.69, i
CN(C)CC1CCCCC1OC(=O)c1ccc(S(=O)(=O)N(C)c2ccccc2)cc1 (centres undefined)
  4.0, -27, 3, -0.7, -4.6, 0.68, i
O=C(COc1ccc(Cl)cc1Cl)Nc1ccccn1
  2.0, 16, -6, 2.7, 0.2, 0.72, i
Cc1ccccc1C(=O)NNC(=O)CN1C(=O)c2ccccc2C1=O
  ., -2, 1, 4.3, 3.4, ., i
CC(C)(C)c1ccc(C(=O)OCC(=O)Nc2sc3c(c2C#N)CCC3)cc1
  -2.9, ., 0, ., 0.1, 0.75, i

Additional entries follow:
Order of values: UCH37 inh, ALR H2O2 inh, Beta2AR agonist, LANA-H2A inh, HNF4A DNA FP, Ecoli growth, FGF22 binding
COCCNC(=O)CN(Cc1ccccc1)C(=O)CCC(=O)Nc1nccs1
  3.5, -3, -8, -4.8, 1.3, 0.7, i
CC1(C)CC(NC(=O)c2cccc([N+](=O)[O-])c2)CC(C)(C)N1
  2.9, ., 5, 6.8, 1.0, 0.6, .
Cc1ccc(CCNC(=O)CS(=O)Cc2nc(-c3cccs3)oc2C)cc1 (centres undefined)
  -0.6, ., -2, -3.0, -3.5, 0.66, i
COc1ccc(OC)c(-n2c(=S)[nH]c3cc(C(=O)N4CCCCC4)ccc3c2=O)c1
  3.6, 10, -2, -2.5, 2.4, 0.66, i
O=C(COC(=O)Cc1ccc(Br)cc1)NCc1ccc2c(c1)OCO2
  -0.8, ., 7, ., 2.7, 0.7, i
O=C(CCCN1C(=O)c2cccc3cccc(c23)C1=O)NCCN1CCOCC1
  -35, ., 0, 0.4, 3.7, 0.64, i
COCCN(C(=S)Nc1ccccc1OC)C(C)c1cccs1 (centres undefined)
  2.4, -10, -4, -0.8, 0.2, 0.67, i
COc1cc(OC)c(NC(=O)CC(C)=O)cc1Cl
  5.0, -7, 7, 3.7, -0.5, 0.67, .
COCCNC(=O)c1cccc(NC(=O)C2=C(C)OCCS2)c1
  -1.9, 5, -6, 3.5, -0.8, 0.66, i
Cc1cc(/C=N/NC(N)=S)c(C)n1-c1ccc(Br)cc1
  ., 41, -6, 19, -2.4, ., i

The results go on.
Order of values: UCH37 inh, ALR H2O2 inh, Beta2AR agonist, LANA-H2A inh, HNF4A DNA FP, Ecoli growth, FGF22 binding
O=C1C2CCCN2C(c2ccco2)N1c1ccc(F)cc1 (centres undefined)
  1.1, -4, -8, 1.4, 2.9, 0.7, i
Cc1ccc(-n2nc3c(c2NC(=O)C(C)C)CS(=O)(=O)C3)c(C)c1
  1.9, 2, 17, 4.2, -2.0, 0.68, i
O=C(NCc1ccc2c(c1)OCO2)c1ccc(CN2CCOCC2)cc1
  0.8, -17, 16, 0.7, 1.0, 0.67, .
CCOc1ccccc1-n1c(SCC(=O)Nc2ccccc2C(=O)O)nc2ccccc2c1=O
  -4.3, 0, 2, -9.0, -4.7, 0.67, i
C/C(=N\O)C(=O)NCCCn1ccnc1
  ., -5, -3, 0.3, 0.4, ., i
O=C(c1ccccc1Sc1ccccc1[N+](=O)[O-])N1CCCCC1
  2.1, -2, 1, -2.7, -1.8, 0.71, i
Cc1ccc(S(=O)(=O)N2CCC[C@H]2C(=O)Nc2ccc(F)cc2C)cc1
  3.0, -5, -3, -9.2, 1.0, 0.7, i
COc1cccc(-c2nc(C(=O)NCC3CCCO3)cc3c2[nH]c2ccccc23)c1 (centres undefined)
  -25, 1, 17, -9.6, 0.9, 0.69, i
CCOC(=O)N/N=C(\C)c1ccc(C)o1
  ., 32, -6, -3.5, -3.5, ., i
CCOC(=O)c1sc(NC(=O)Cn2nnc3sc4c(c3c2=O)CCCC4)nc1C
  2.2, -5, 4, 1.9, 12, 0.68, .

(cont.)
Order of values: UCH37 inh, ALR H2O2 inh, Beta2AR agonist, LANA-H2A inh, HNF4A DNA FP, Ecoli growth, FGF22 binding
O=C(COC(=O)COc1cccc(Br)c1)Nc1ccc(F)cc1F
  5.1, ., 3, ., -1.8, 0.65, i
O=C(CN(C(=O)Cn1nnc(-c2cccs2)n1)c1ccc2c(c1)OCCO2)NC1CCCCC1
  4.5, -16, -7, -1.4, 1.9, 0.75, .
COC(=O)c1sccc1NC(=S)Nc1ccc(OC)cc1
  1.1, -6, 0, -454, -0.5, 0.69, i
CCN(CC(=O)NC(C)(C)C)C(=O)c1ccc(Br)cc1
  0.9, -14, 0, 1.2, -2.1, 0.67, i
COc1cccc(N2CCN(CC(=O)NC(=O)NC3CCCCC3)CC2)c1
  1.7, ., 2, ., -3.8, 0.69, i
COc1cc([N+](=O)[O-])ccc1N=Nc1c(N)[nH]n(-c2ccccc2)c1=O
  7.2, -12, -2, -0.8, -0.8, 0.72, i
S=C(NCc1ccco1)Nc1cc(Cl)c(Cl)cc1Cl
  6.8, -5, -2, -2.1, 1.9, 0.68, i
C=CCSc1nnc(COc2ccc(=O)n(-c3ccccc3)n2)n1CC
  5.2, 2, -5, -0.3, -1.5, 0.74, .
CN1CCN(C(=O)c2ccccc2-c2ccccc2C(=O)O)CC1
  -0.4, 2, 6, 3.8, 1.6, 0.65, .
COc1ccc(/C=C(\NC(=O)c2ccc(OC)cc2)C(=O)Nc2ccc(C(=O)O)cc2)cc1
  5.7, -9, 0, 1.0, -0.4, 0.61, i
CCSc1ccccc1C(=O)Nc1nncs1
  1.5, -3, 10, -2.4, -3.6, 0.68, .
Cc1cc(NC(=O)c2ccc(C)s2)n(-c2ccccc2)n1
  4.5, 2, -5, 3.1, 6.1, 0.66, .
O=C(c1ccc(Cl)nc1)N1CCN(S(=O)(=O)c2ccccc2)CC1
  -1.5, -3, -3, -0.5, -6.0, 0.69, i

These rows are one share of the data; rates above refer to the full screens.
